High-throughput results as filed in PubChem BioAssay.
GALR2 agonist – GALR2 (human) receptor agonism; O43603; GALR2-expressing cells, agonist activation read-out; activation, %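 (tested at 5 µM)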; 0.48% of 140,000 active; AID 803;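 active = above mean plus 3 SD of all compounds, about 5% in these data, not always enough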;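 note: 0% = vehicle buffer wells and 100% = reference agonist at full effect; tested in CHO reporter cells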
Target sequence (O43603 whole entry, looked up): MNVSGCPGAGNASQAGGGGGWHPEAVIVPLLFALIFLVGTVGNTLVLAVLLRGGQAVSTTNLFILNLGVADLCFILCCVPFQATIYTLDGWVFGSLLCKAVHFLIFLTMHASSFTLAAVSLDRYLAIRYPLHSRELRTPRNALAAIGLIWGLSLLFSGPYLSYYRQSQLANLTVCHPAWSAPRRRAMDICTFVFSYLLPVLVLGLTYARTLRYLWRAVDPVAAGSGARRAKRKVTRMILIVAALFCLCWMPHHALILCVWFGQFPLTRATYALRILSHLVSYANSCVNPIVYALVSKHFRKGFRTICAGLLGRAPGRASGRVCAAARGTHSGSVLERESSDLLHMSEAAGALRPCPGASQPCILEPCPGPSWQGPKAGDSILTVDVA
RGS16-Gao HTS – regulators of human RGS16-Galphao interaction; AID 1441; O15492+P09471; 0.38% of 220,000 active; bead-based flow cytometry RGS16-Galphao binding, fluorescence; actives lie on both sides; binding response (% of control), % at 10 µM;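 active = below 25% or above 175%, edge rows of some plates excepted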;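 note: Galphao activated by GDP with aluminum fluoride before binding; 100% = wells without compound and 0% = beads without RGS; some results beyond the cut were filed as inactive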
Target sequence (O15492 whole entry, looked up): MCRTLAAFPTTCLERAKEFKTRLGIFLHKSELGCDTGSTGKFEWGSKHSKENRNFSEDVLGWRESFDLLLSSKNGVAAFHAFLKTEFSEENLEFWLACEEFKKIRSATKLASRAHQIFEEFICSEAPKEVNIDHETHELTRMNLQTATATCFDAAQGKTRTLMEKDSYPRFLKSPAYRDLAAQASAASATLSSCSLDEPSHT
Target sequence (P09471 whole entry, looked up): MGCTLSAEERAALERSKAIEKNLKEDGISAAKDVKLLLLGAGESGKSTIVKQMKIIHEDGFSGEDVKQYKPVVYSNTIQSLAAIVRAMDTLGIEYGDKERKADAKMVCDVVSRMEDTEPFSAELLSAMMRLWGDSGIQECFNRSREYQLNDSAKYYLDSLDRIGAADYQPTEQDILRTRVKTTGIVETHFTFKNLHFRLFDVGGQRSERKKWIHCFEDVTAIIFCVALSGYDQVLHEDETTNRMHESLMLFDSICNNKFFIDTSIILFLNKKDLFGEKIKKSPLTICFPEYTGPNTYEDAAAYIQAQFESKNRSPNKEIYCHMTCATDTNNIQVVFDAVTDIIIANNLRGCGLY
Insulin prom inh – TRM-6 insulin promoter activity inhibition; 0.9% of 130,000 active; AID 1273; TRM-6 cells (human fetal islet line), insulin promoter-eGFP reporter, imaging; reporter expression induced with tamoxifen; inhibition, % at 2 µM;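 active = inhibition above the mean plus 3 SD, with well images judged a real hit on visual review, cut at about 60% in these data, passing the limit was not always enough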
PKD1 kinase inh – inhibitors of human PKD1 kinase; Q15139; PKD1 kinase fluorescence polarization assay; inhibition, %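 (about 10 µM by stock and volumes)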; 0.056% of 200,000 active;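 active = inhibition of 50% or more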;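 note: controls were vehicle for no effect and a reference inhibitor for full effect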
HSV replic up – increases HSV replication in cells. HSV replication augmentation in cells, fold increase. maximum fold increase. 0.005% of 220,000 active. AID 1956;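 active = peak rise of 1.5-fold or more in the series; tested in PC3 cells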;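 note: first round at 10 µM; read as green reporter fluorescence; hits show the peak of a series up to 25 µM; 1 = signal of infected wells without compound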
Insulin prom inh cell count – also measured in Insulin prom inh; calls as there; normalized cell count, %; measured here: cell count, toxicity; reference of the scale not given here;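 cells exposed to compound for 48 h; stained nuclei by imaging scaled within each plate; lower means fewer cells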
HSV replic up primary fold – also measured in HSV replic up; calls as there; fold increase; compound at 10 µM; measured here: primary screen fold increase 10 uM; tested in PC3 cells;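 GFP signal in the first replicate; 1 = infected wells without compound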
The depositor's hits bear a star; i = inactive; x = not tested or not shown.

SMILES	GALR2 agonist	RGS16-Gao HTS	Insulin prom inh	Insulin prom inh cell count	PKD1 kinase inh	HSV replic up	HSV replic up primary fold
O=C(CSCC(=O)c1ccccc1)Nc1ccccc1Cl	-1.7	103	-19	82	4	i	0.88
OC[C@@H]1CCCN1Cc1nc(-c2cccs2)no1	x	107	x	x	-1	i	1.1
COc1ccccc1-n1cnc2cc(NCc3cccs3)ccc21	-1.0	103	-257	9	-7	i	0.89
Cc1c(-n2c(SCC(C)C)nc3ccccc3c2=O)c(=O)n(-c2ccccc2)n1C	x	98	x	x	-2	i	0.86
C=C(C)[C@@H]1CC=C(C(=O)O)CC1	x	97	x	x	x	i	0.78
COC(=O)c1cc2occc2n1CC(=O)Nc1ccc(OC)c(OC)c1OC	-1.8	102	-25	132	-8	i	1
COc1ccc(NC(=S)NCc2ccc3c(c2)OCO3)cc1	x	102	x	x	5	i	0.88
CCOc1ccc(NS(=O)(=O)c2ccc(NC(=S)NC(=O)CC(C)C)cc2)cc1	-0.5	115	-15	79	-9	i	0.76
Cc1c(Cl)cccc1NC(=O)c1ccc(OCC(=O)NCc2ccccc2)cc1	-0.3	108	x	x	1	x	x
O=C(NCc1ccccc1)c1ccccc1-c1nc2ccccc2[nH]1	x	100	-88	115	-2	i	1
CC(=O)Nc1ccc(Nc2ccc(N3C(=O)CCCC3=O)cc2[N+](=O)[O-])cc1	-1.3	33	33	125	3	i	0.95
CC(=O)Nc1ccc(Nc2c([N+](=O)[O-])cc(S(C)(=O)=O)cc2[N+](=O)[O-])cc1	-0.3	97	x	x	-2	i	1
CC(=O)c1ccc(OCc2ccccc2)c(C)c1O	-1.2	97	43	110	-1	i	1
CCOc1ccc(N=Cc2c(C)[nH]n(-c3nc4ccccc4[nH]3)c2=O)cc1	-0.2	105	x	x	-6	i	0.96
CCOC(=O)c1c[nH]c2c(Cl)c(Cl)ccc2c1=O	-1.7	106	35	48	-14	i	0.88
CCN(CC)CCOC(=O)c1ccc(N/C=C(/C#N)c2nc(-c3ccc4c(c3)OCO4)cs2)cc1	x	97	x	x	x	i	0.71
Cc1ccc(NC(=S)NCCc2ccc(F)cc2)c(C)c1	-0.1	97	x	x	3	i	1
COc1ccc(N2CCN(C(=O)COc3ccccc3)CC2)cc1	-0.4	105	12	123	-4	i	0.82
N#Cc1nc(COc2ccc(-c3ccccc3)cc2)oc1NCc1cccnc1	-1.9	x	23	108	0	i	0.91
COc1ccc(/C=N/NC(=O)c2ccco2)cc1Cn1nc(C)c([N+](=O)[O-])c1C	x	96	x	x	7	i	0.95

Compounds from the list above containing four or more nitrogen atoms, in the order listed:
SMILES	GALR2 agonist	RGS16-Gao HTS	Insulin prom inh	Insulin prom inh cell count	PKD1 kinase inh	HSV replic up	HSV replic up primary fold
Cc1c(-n2c(SCC(C)C)nc3ccccc3c2=O)c(=O)n(-c2ccccc2)n1C	x	98	x	x	-2	i	0.86
CC(=O)Nc1ccc(Nc2ccc(N3C(=O)CCCC3=O)cc2[N+](=O)[O-])cc1	-1.3	33	33	125	3	i	0.95
CC(=O)Nc1ccc(Nc2c([N+](=O)[O-])cc(S(C)(=O)=O)cc2[N+](=O)[O-])cc1	-0.3	97	x	x	-2	i	1
CCOc1ccc(N=Cc2c(C)[nH]n(-c3nc4ccccc4[nH]3)c2=O)cc1	-0.2	105	x	x	-6	i	0.96
CCN(CC)CCOC(=O)c1ccc(N/C=C(/C#N)c2nc(-c3ccc4c(c3)OCO4)cs2)cc1	x	97	x	x	x	i	0.71
N#Cc1nc(COc2ccc(-c3ccccc3)cc2)oc1NCc1cccnc1	-1.9	x	23	108	0	i	0.91
COc1ccc(/C=N/NC(=O)c2ccco2)cc1Cn1nc(C)c([N+](=O)[O-])c1C	x	96	x	x	7	i	0.95

Next results follow.
SMILES	GALR2 agonist	RGS16-Gao HTS	Insulin prom inh	Insulin prom inh cell count	PKD1 kinase inh	HSV replic up	HSV replic up primary fold
N#CC1=C(N)Oc2cc(O)ccc2C1c1ccccc1 (stereo not given)	-0.9	98	-88	98	-8	i	1
O=C(NC1CCCCC1)C(c1ccccc1)N1CCCC1 (stereo not given)	-0.9	105	x	x	-1	i	1
Cc1ccc(N2C(=O)CSC2=S)cc1C	x	105	x	x	1	i	1
COc1ccc(N2CCN(S(=O)(=O)c3ccc4c(c3)CCCC4)CC2)c([N+](=O)[O-])c1	-2.3	100	0	86	8	i	0.88
CCN(CC)S(=O)(=O)c1cc(NC(=O)CN2CCN(c3ccccn3)CC2)ccc1C	x	112	x	x	-7	i	0.91
N#CC12C(N)=NC3(OCCO3)C1(C#N)C1=C(CCC1)NC2c1ccccc1 (stereo not given)	-1.6	100	x	x	-13	i	1.2
CCSc1nnc2ccc(-c3ccco3)nn12	x	99	x	x	3	i	0.91
O=C(O)C1C2C=CC(O2)C1C(=O)NC1CCCc2ccccc21 (stereo not given)	-0.5	104	-55	55	-3	i	0.97
O=C(CSc1nnc(-c2ccco2)o1)c1ccccc1Cl	x	88	0	123	8	i	0.95
COC(=O)Nc1nnc(-c2ccccc2OC)s1	x	98	x	x	x	i	0.97
CN(Cc1cc2ccccc2[nH]c1=O)S(C)(=O)=O	-0.4	118	-75	68	9	i	0.92
Cc1ccc(-c2csc3nc(SCC(=O)N(C)C)n(Cc4ccccc4)c(=O)c23)cc1	1.7	103	x	x	-1	i	0.91
CCOC(=O)C1(Cc2cccc(OC)c2)CCN(Cc2cccc3cnccc23)CC1	x	112	x	x	1	i	1.1
CCN1CCN(S(=O)(=O)c2cc(C)c(OC)cc2C)CC1	-1.2	103	x	x	-10	i	1.2
N#Cc1ccc(C23CC4(C2)[C@H](CN(Cc2ccc(-c5ccccc5)cc2)[C@@H]4c2ccccc2)C3c2ccccc2)cc1 (stereo not given in full)	x	79	x	x	x	i	0.93
CC(/C=C/c1ccco1)=N/NC(=O)OC(C)(C)C	-0.3	91	-57	81	1	i	1
CC(C)c1ccc(-n2cccc2/C=C2/C(=N)N3C=CSC3=NC2=O)cc1	-1.8	97	14	130	4	i	1
Cc1ccc(-c2noc(CN3CCN(C(c4ccccc4)c4ccccc4)CC3)n2)cc1	-1.2	104	21	57	-2	i	0.93
CC(=O)Nc1ccc(S(=O)(=O)NCC2CCC(C(=O)N3CCCCCC3)CC2)cc1 (stereo not given)	-2.9	86	-21	116	5	i	0.99
COc1ccc(S(=O)(=O)Nc2ccccc2-c2nnn(CC(=O)Nc3ccccc3OC)n2)cc1	-1.3	112	4	98	2	i	0.79
CCN(CC)c1ccc(C(=O)N/N=C(\C)c2cccnc2)cc1	x	104	x	x	-8	i	1.1
O=C(Cn1cnc2ccccc21)NCCCN1CCOCC1	-1.1	106	-22	246	-3	i	0.94
CCCNS(=O)(=O)c1ccc(OCC(=O)Nc2ccc3c(c2)OCCO3)cc1	-1.6	103	-21	131	-5	i	0.77
CCn1cc(C(=O)N2CCn3c(nc4ccccc43)C2)c(=O)c2ccc(C)nc21	-3.1	104	x	x	-4	i	1.1
O=C(CCc1nnc(-c2ccc(-c3ccccc3)cc2)o1)NCCc1ccccn1	x	99	x	x	-5	i	0.98
O=C(CN1CCN(c2ccccn2)CC1)Nc1ccc2ccccc2c1	-2.6	101	x	x	8	i	1
CC(C)NC(=O)c1ccc2c(=O)n(CC3CCCO3)c(=S)[nH]c2c1 (stereo not given)	x	99	20	87	-2	i	0.94
CC(=O)Nc1ccc(N2CCOCC2)c(C(=O)Nc2cccc(C)c2)c1	-2.8	116	62	141	-2	i	1
Cc1[nH]n(-c2ccccc2)c(=O)c1C=NC1CCCCCC1	x	102	x	x	-5	i	0.86
NC1=NC(c2cn(-c3ccccc3)nc2-c2cccs2)n2c(nc3ccccc32)N1 (stereo not given)	-0.9	99	22	83	-2	x	x
O=C(Nc1cccc(Cl)c1)OCc1cncs1	-0.8	104	8	122	-4	i	0.87
O=C1N2CCSC2=NC1(Nc1ccccn1)C(F)(F)F (stereo not given)	-4.7	103	x	x	5	i	0.93
O=C1c2ccccc2C(=O)C12OC(c1ccccc1)C1(C(=O)c3ccccc3C1=O)C2c1cccc([N+](=O)[O-])c1 (stereo not given)	-2.2	106	52	138	-5	i	1.4
CC(C)CC(=O)Nc1ncnc2c1C(=O)CC(C)(C)C2	0.0	109	-18	50	-7	i	0.96
CCCN(Cc1ccccc1)C(=S)Nc1cccc(C(F)(F)F)c1	-3.3	41	-7	70	-9	i	0.86
COc1cc(/C=N/NC(=O)CNc2n[nH]c(=O)[nH]c2=O)ccc1O	0.3	97	22	136	6	i	1.2
CC(=O)Nc1ccc(S(=O)(=O)N2CCN=C2C)cc1	-2.5	97	-15	112	-4	i	0.79
Cc1cc(C)c(O)c(C2(O)C(=O)c3ccccc3C2=O)c1	x	94	x	x	x	i	0.98
Cc1nc(-c2nnc(SCC(=O)Nc3cc(Cl)cc(Cl)c3)n2C)cs1	x	96	x	x	x	i	0.92
COc1ccc(S(=O)(=O)NCCc2ccc(F)cc2)cc1	-3.4	95	x	x	-4	i	0.84
CCn1c(=O)c([N+](=O)[O-])c(N2CCN(Cc3ccc4c(c3)OCO4)CC2)c2ccccc21	x	98	x	x	x	i	0.96
CCOC(=O)C1CCN(CCC(=O)Nc2ccc(C)cc2)CC1	x	104	x	x	-9	i	0.9
CC1CCN(Cc2nc3c(c(=O)n(C)c(=O)n3C)n2Cc2c(F)cccc2Cl)CC1	-2.2	x	x	x	0	x	x
Cc1ccc(N(CC(=O)NCc2ccc(F)cc2)S(=O)(=O)c2cccs2)cc1	-4.7	97	-50	120	-4	i	0.79
COc1ccccc1N1CCN(C(c2ccccc2)c2nnnn2CCc2ccccc2)CC1 (stereo not given)	-1.6	99	-19	69	-2	i	1.1
O=C(NCCc1ccccc1)C1CCN(c2ncccn2)CC1	x	89	x	x	-3	i	1.4
COc1ccc(C)cc1S(=O)(=O)Nc1ccc2c(c1)OCO2	x	101	x	x	-5	i	1.1
NC(=O)[C@@H]1CC2(CC(c3cccc(NC(=O)[C@@H]4CCC(=O)N4)c3)=NO2)CN1C(=O)Cc1ccc([N+](=O)[O-])cc1 (stereo not given in full)	x	99	x	x	x	i	1
Cc1nc2cc(N=NC3=C(O)CCCC3=O)ccc2s1	-2.3	103	25	101	4	i	0.98
O=C(COC(=O)CCCOc1ccc(Cl)cc1Cl)Nc1cccc(Cl)c1	0.6	106	-160	42	1	i	0.92
(continued)
SMILES	GALR2 agonist	RGS16-Gao HTS	Insulin prom inh	Insulin prom inh cell count	PKD1 kinase inh	HSV replic up	HSV replic up primary fold
O=C(c1ccccc1)N1CCN(C2CC3CCC2C3)CC1 (stereo not given)	-2.3	103	-57	114	-7	i	1.1
C/C(Nc1cccc(F)c1)=C(/C#N)C(N)=O	-0.6	101	48	97	1	i	1.2
C#CC(CC)(CC)NC(=O)c1ccc(Br)s1	x	98	x	x	3	i	0.92
Cc1nc(CS(=O)(=O)c2ccccc2)cc(N2CCOCC2)n1	-1.9	114	-24	132	10	i	0.89
COc1ccc2cc(-c3[nH]ncc3CN3C[C@@H]4CCC[C@H]3C4)ccc2c1	x	99	x	x	-5	i	1
CC(Sc1nc(NC(C)(C)C)nc(N(C)C)n1)C(=O)Nc1ccccc1 (stereo not given)	x	110	-77	133	-6	x	x
O=C(O)CCCNC(=O)Cc1ccccc1	x	97	x	x	x	i	0.96
Cc1cc(NC(=O)c2ccc(Cn3nc(C)c(Br)c3C)o2)no1	-2.8	104	-37	166	-5	i	1
CSc1ccc(S(=O)(=O)NC(C)c2ccccc2)cc1 (stereo not given)	x	103	-16	159	-1	i	0.96
O=C(NCc1ccc2c(c1)OCO2)c1cc2c(s1)CS(=O)(=O)C2	-1.2	99	-3	113	-5	i	0.91
Cc1ccc(Nc2ccc(N3CCN(c4ccc([N+](=O)[O-])cc4)CC3)nn2)cc1	x	102	8	130	-2	i	0.94

3 compounds drawn at random from those above:
SMILES	GALR2 agonist	RGS16-Gao HTS	Insulin prom inh	Insulin prom inh cell count	PKD1 kinase inh	HSV replic up	HSV replic up primary fold
COc1ccc2cc(-c3[nH]ncc3CN3C[C@@H]4CCC[C@H]3C4)ccc2c1	x	99	x	x	-5	i	1
O=C(NCc1ccc2c(c1)OCO2)c1cc2c(s1)CS(=O)(=O)C2	-1.2	99	-3	113	-5	i	0.91
O=C(c1ccccc1)N1CCN(C2CC3CCC2C3)CC1 (stereo not given)	-2.3	103	-57	114	-7	i	1.1
